Mtb hypoxia inh – Mtb hypoxia fluorescent reporter inhibition; M. tuberculosis hypoxia-regulated fluorescent reporter, fluorescence; fluorescence inhibition, % (concentration not given with the values); 300,000 compounds, 0.1% hits;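 active = 35 to 45% if threefold the growth effect, above 45% if 1.5-fold the growth effect; inactive = the rest, general growth blockers included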;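 note: wells of about 50 µL received 100 nL stock; 0% = vehicle wells and 100% = reference inhibitor wells; whole bacteria with a GFP reporter of the hypoxia response; strong numbers were not always called active; many hits fall short of the cut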
Sa ugtP lethal – growth inhibition of S. aureus ugtP deletion strain; S. aureus RN4220 ugtP deletion, OD600 growth, 16 h; some inactives read as strong as hits; growth inhibition, % (no concentration beside the values); 330,000 compounds, 0.54% hits; AID 1259309;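 active = z-score under -3 and OD600 up to 0.15 on both plates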;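 note: plate controls were untreated wells for no effect and antibiotic for full effect; wells of about 80 µL received 100 nL stock; the first replicate is given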
PrP 5UTR inh – suppresses PrP 5' UTR mRNA reporter expression; cell-based PrP 5' UTR mRNA reporter, plate reader; inhibition, % (concentration not given with the values); 340,000 compounds, 0.35% hits; AID 488862;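 active = every replicate at 50% or more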;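 note: 0 = median of the neutral control wells; tested in H4 reporter cells; numbers are from one replicate; inactives centre near -14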
Autofluor counter – flagged as autofluorescent in microsphere protease counterscreen; compound autofluorescence counterscreen, microsphere flow cytometry; stronger effect = higher value; fluorescence intensity (no concentration beside the values); 360,000 compounds, 3.1% hits;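 active = at least 3 SD above the mean of all compounds, about 16000 in these data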;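 note: 100 nL of 1 mM stock went into each well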
RN4220 kill – kills Staphylococcus aureus RN4220; S. aureus RN4220 growth, OD600, 16 h; inhibition, % (no concentration beside the values); 330,000 compounds, 0.33% hits;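 active = z-score of -3 or lower and OD600 up to 0.18 on both plates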;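 note: plate controls were untreated cells for no effect and reference antibiotic for full effect; stock transfer was 100 nL into about 80 µL; one replicate is shown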
BJeLR lethal – BJeLR cell viability loss; BJeLR (HRASV12) viability, CellTiter-Glo ATP luminescence, 48 h; reference of the scale not given here; inhibition, % (no concentration beside the values); 300,000 compounds, 0.17% hits;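 active = replicate mean above 50%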;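 note: 50 nL library stock added to about 25 µL; numbers are from one replicate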
Mtb hypoxia inh growth – second read-out of Mtb hypoxia inh, no call of its own (marks repeat the call); growth inhibition, %; measured here: M. tuberculosis growth (absorbance);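 0% = vehicle and 100% = reference antibiotic; read after six days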
Active calls of the source: *; / = no result given.

SMILES | Mtb hypoxia inh | Mtb hypoxia inh growth | Sa ugtP lethal | PrP 5UTR inh | Autofluor counter | RN4220 kill | BJeLR lethal
CCC(C)[C@H](NC(=O)NC1CCCc2ccccc21)C(=O)O (stereo partly specified) | 15 | 4 | 15 | -12 | 8232 | 5.5 | -22
O=C(NCCCO)C(=O)Nc1cc2c3c(c1)CCC(=O)N3CCC2 | 12 | 1 | 1 | -26 | 3753 | 3.1 | 5
CCCCC1=C(C(=O)OCC)C(C(=O)OCC)Oc2ccccc21 (stereo unspecified) | -2 | 6 | 43 | 45 | 3988 | 1.0 | /
CCn1c(SCC(=O)NC2CCCC2)nnc1-c1ccccn1 | 10 | -10 | 2 | -10 | 5193 | 3.0 | -15
Cn1cccc1/C=C(\C#N)C(N)=S | -9 | -6 | 0 | -20 | / | 3.6 | -6
CCCc1nc2c([nH]1)c(=O)n(C)c(=O)n2C | -7 | -14 | 9 | -21 | 4112 | 2.7 | 4
O=C1NC(=O)/C(=C\c2ccc(N3CCOCC3)o2)N1 | 15 | 2 | 2 | -8 | 3288 | 4.3 | 4
CCOC(=O)C1=C(CSc2nc3c(cc2C#N)CN(C)CC3)OC(N)=C(C#N)C1c1ccncc1 (stereo unspecified) | 20 | 9 | 1 | -15 | 2163 | 5.1 | 8
NC(=O)c1cc2ccccc2oc1=NNC(=O)c1ccccc1O | 8 | 4 | -3 | / | / | 2.4 | /
Cc1c(C=NNC(=O)c2ccccc2O)c2ccccn2c1C(=O)c1ccc(F)cc1 | -2 | -2 | 10 | / | / | 12 | /
Cc1cc(C)c(C)c(S(=O)(=O)N2CCN(c3ncnc4sc(C)c(C)c34)CC2)c1C | 5 | 4 | 10 | -16 | 5108 | 8.1 | -9
COc1cc(C(=O)OCC(=O)c2cc(C)n(C)c2C)cc(OC)c1OC | 7 | 2 | -1 | -20 | 3580 | 0.3 | 4
CCOc1cccc(/C=C(\C#N)C(=O)NC2CC2)c1 | 9 | -4 | 4 | -28 | 6246 | 6.2 | -6
Cc1cc(C)n(-c2n[nH]c(=O)c3ccccc23)n1 | 7 | -1 | 2 | -7 | 4945 | 5.3 | -13
COc1ccc(C(=O)Nc2ccc(S(=O)(=O)NC(C)(C)C)cc2)cc1[N+](=O)[O-] | -9 | 1 | -1 | -29 | 3234 | 3.5 | 7
C=CCOc1ccc(C2c3c(oc4ccccc4c3=O)C(=O)N2CCCN2CCOCC2)cc1 (stereo unspecified) | 6 | 7 | 19 | -15 | 7696 | 1.6 | -1
Cc1cc(C)n(-c2ccc(C(=O)NCc3ccc(F)cc3)cc2)n1 | 2 | 8 | 2 | -20 | 4426 | 1.9 | 8
O=C(c1cc(-c2ccc(Cl)cc2Cl)on1)N1CCN(C(=O)c2ccco2)CC1 | 4 | 3 | 0 | -2 | 2237 | 8.2 | -3
CC1=CC(=NN=C2NC(=O)C(CC(=O)Nc3ccccc3F)S2)CC(C)(C)C1 (stereo unspecified) | 7 | 1 | -6 | / | / | 13 | /
Clc1ccc2nc(-c3ccccc3)nc(C(Cl)Cl)c2c1 | -5 | 0 | 3 | 93* | 6250 | 6.8 | /
COc1ccc(C)cc1NC(=O)CCN1CCCC1 | 9 | -2 | 10 | -12 | 6045 | 2.2 | -8
COC(=O)CNC(=O)c1cccc(-c2ccc(OC)cc2)c1 | 0 | -21 | 3 | -16 | 2181 | 10 | -11
CN(C)/C=N/N(C)c1ncccc1[N+](=O)[O-] | / | / | / | -2 | 6038 | / | -3
CC1CCN(S(=O)(=O)c2ccc3nc(N4CCN(c5ccccc5)CC4)ccc3c2)CC1 | 13 | 2 | 6 | / | / | 5.7 | 3
CCOC(=O)c1sc(NC(=O)CN2C(=O)NC3(CC(C)CC(C)(C)C3)C2=O)cc1C (stereo unspecified) | 7 | 1 | -26 | -12 | 5452 | 1.7 | -4
O=C(O)C1CCN(C(=O)c2ccccc2Cl)CC1 | -4 | 5 | 1 | -22 | 11016 | 0.5 | -1
O=C(/C=C/c1ccc(Cl)cc1Cl)N(Cc1ccccc1)C1CCS(=O)(=O)C1 (stereo unspecified) | -4 | 4 | 4 | -17 | 2497 | 6.4 | -6
COc1ccccc1N1CCN(C(=O)CSc2nnc(NC(=O)C3CC3)s2)CC1 | 6 | 5 | -1 | -17 | 8004 | -1.0 | 0
N#CCCn1cc(C(=O)NCc2ccccc2)c(-c2cccs2)n1 | 15 | 4 | 7 | -17 | 4499 | 7.4 | 13
O=C(NCCOC(=O)c1ccc(Cl)c(S(=O)(=O)N2CCCCC2)c1)c1ccncc1 | / | / | 8 | -1 | 3940 | 12 | -4
Cc1c(CN2CCC(Oc3ccc(C(=O)N4CCCCC4)cc3)CC2)cnn1C | 8 | -2 | 6 | -16 | 4506 | 0.5 | 1
O=C(NCc1ccccc1)c1c[nH]c2cc3c(cc2c1=O)OCCO3 | -1 | 0 | -2 | -60 | 16706* | 1.1 | 3
CCOC(=O)c1nnn(-c2nonc2N)c1CSc1nnc(N)s1 | 2 | 9 | 2 | -10 | 2229 | 3.7 | -5
Nc1nc(NCCN2CCOCC2)nc(NCc2ccccc2)c1[N+](=O)[O-] | 0 | -3 | 7 | -13 | 4932 | 4.3 | 9
CC(C)(C)OC(=O)NN=Cc1c[nH]c2ccccc12 | 10 | 5 | -1 | / | / | 6.7 | /
CC(C)(C)c1cc(NC(=O)c2cc(F)c(F)c(F)c2F)no1 | 11 | 12 | 2 | -47 | 2926 | -4.7 | -3
Cc1ccccc1NC(=O)c1ccc(-c2ccc(Cl)cc2Cl)o1 | / | / | -20 | -17 | 2421 | -3.8 | -8
S=C(Nc1ccc(Cl)cc1)NC1CC2CCCC(C1)N2C1CCCC1 (stereo unspecified) | -7 | -14 | -3 | 19 | 8744 | 5.5 | -1
CC1=NN(C(=O)CCc2ccc3c(c2)OCO3)C(O)(C(F)(F)F)C1 (stereo unspecified) | -7 | 6 | 0 | -27 | 2133 | 4.3 | 1
O=C(Nc1ccccc1)C1CC(=O)n2ncnc2N1 (stereo unspecified) | 3 | 4 | 2 | / | 9723 | 5.2 | -5
CN(C)S(=O)(=O)c1ccc(N2C(=O)CC2(/C=C/c2ccccc2)C(=O)NC2CCCC2)cc1 (stereo unspecified) | 4 | -5 | 28 | 2 | 2383 | 0.7 | -5
O=S(=O)(NCCN1CCCC1)c1ccc(C(F)(F)F)cc1 | 5 | -5 | 2 | -24 | 3976 | 1.5 | -5
COc1ccccc1NC(=O)c1cc2ccccc2o1 | / | / | -6 | -88 | 2207 | 6.8 | 4
Cc1ccc(C(=O)O)cc1-n1c(=O)n(Cc2ccccc2)c(=O)c2[nH]cnc21 | 13 | 17 | 9 | -1 | 3704 | 3.0 | -6
O=C(Nc1sc2c(c1-c1nc3ccccc3[nH]1)CCCC2)C1CC1 | 15 | 8 | 0 | -18 | 3168 | -0.4 | 0
CCN(CC)CCNC(=O)c1ccc(NC(=O)c2ccc(COc3ccccc3)cc2)cc1 | 3 | -5 | 10 | -6 | 5071 | -1.7 | 7
COc1cccc(CNC(=O)COc2cccc(-n3cnnn3)c2)c1 | 14 | 2 | 8 | -12 | 6859 | 2.2 | 1
CC(C)OC(=O)c1cccc(NC(=O)CSc2nnc(N)s2)c1 | -4 | 4 | 1 | -10 | 4426 | -2.2 | -10
CCOC(=O)C1CCN(c2c(NCc3ccc(C(=O)NC4CCCC4)cc3)c(=O)c2=O)CC1 | 2 | -1 | 14 | -7 | 5934 | 2.2 | 4
CSCCC1NC(=O)N(CC(=O)Nc2ccc(Br)cc2Br)C1=O (stereo unspecified) | 7 | 5 | 7 | -4 | 6229 | 3.9 | 1

Molecules shown so far containing an aryl thioether with sulfur outside any ring, in the order listed:
SMILES | Mtb hypoxia inh | Mtb hypoxia inh growth | Sa ugtP lethal | PrP 5UTR inh | Autofluor counter | RN4220 kill | BJeLR lethal
CCn1c(SCC(=O)NC2CCCC2)nnc1-c1ccccn1 | 10 | -10 | 2 | -10 | 5193 | 3.0 | -15
CCOC(=O)C1=C(CSc2nc3c(cc2C#N)CN(C)CC3)OC(N)=C(C#N)C1c1ccncc1 (stereo unspecified) | 20 | 9 | 1 | -15 | 2163 | 5.1 | 8
COc1ccccc1N1CCN(C(=O)CSc2nnc(NC(=O)C3CC3)s2)CC1 | 6 | 5 | -1 | -17 | 8004 | -1.0 | 0
CCOC(=O)c1nnn(-c2nonc2N)c1CSc1nnc(N)s1 | 2 | 9 | 2 | -10 | 2229 | 3.7 | -5
CC(C)OC(=O)c1cccc(NC(=O)CSc2nnc(N)s2)c1 | -4 | 4 | 1 | -10 | 4426 | -2.2 | -10

Next entries
SMILES | Mtb hypoxia inh | Mtb hypoxia inh growth | Sa ugtP lethal | PrP 5UTR inh | Autofluor counter | RN4220 kill | BJeLR lethal
CCCOc1ccc(N2CC(C(=O)Nc3ccccc3C(=O)NC)CC2=O)cc1 (stereo unspecified) | 7 | -2 | 2 | -8 | 3908 | 11 | -20
O=C(CCCc1ccccc1)Nc1nnc(C(F)(F)F)s1 | 7 | 11 | 3 | -13 | 4579 | 4.6 | -1
Cc1onc(-c2c(F)cccc2Cl)c1C(=O)Nc1ccc(S(=O)(=O)Nc2ncccn2)cc1 | 2 | 11 | -6 | 7 | 2980 | -13 | 0
CCOC(=O)N1CCN(C(=O)C(c2ccccc2)c2ccccc2)CC1 | 4 | 10 | 4 | -16 | 3004 | -3.3 | -3
COc1ccc(C2CC(=O)Oc3cc(OC)c(OC)c(OC)c32)cc1 (stereo unspecified) | -4 | 5 | 8 | -11 | 3765 | 2.9 | /
Fc1ccccc1NC(=S)N(CCCN1CCOCC1)Cc1cccnc1 | 6 | -1 | 6 | -11 | 3303 | 1.2 | -9
COc1ccc(-c2nc3n(n2)C(c2ccccc2)C2=C(CCCC2=O)N3)cc1OC (stereo unspecified) | 10 | 12 | 4 | -28 | / | 3.0 | -2
CC(C)(C)S(=O)N1Cc2cc(CO)cc(CCO)c2[C@@H]1CCO (stereo partly specified) | -5 | 5 | 1 | -20 | 3587 | -1.5 | /
O=C(O)c1cccnc1SC1CC(=O)N(c2cccc3ccccc23)C1=O (stereo unspecified) | 10 | 1 | 3 | / | / | 2.4 | 12
O=[N+]([O-])c1ccccc1OCCCOc1cccc2cccnc12 | -2 | 1 | 2 | -45 | 3895 | 8.7 | -19
Cc1nc2c(-c3ccc(F)cc3)c(C)nn2c(C)c1CCC(=O)N1CCN(c2ccccn2)CC1 | -7 | -5 | 3 | 4 | 5438 | 6.4 | -7
CCOc1ccc(S(=O)(=O)NCCN2CCOCC2)c2ccccc12 | 2 | 2 | -1 | -2 | 8899 | -0.6 | 9
CCOc1ccccc1N1C(=O)NC(=O)C(CCc2ccncc2)(CCc2ccncc2)C1=O | -4 | -11 | 6 | -21 | 3088 | -4.7 | 0
CCN1CCN(C(=O)C(C)Nc2cc(Cl)c(OC)cc2OC)CC1 (stereo unspecified) | -7 | -5 | -4 | -9 | 3994 | 1.1 | 6
COc1cc(C=NNc2nc(C)nc3c2cnn3-c2ccccc2)ccc1O | 9 | 9 | -5 | / | / | -2.7 | /
O=C(NCCCN1CCOCC1)c1ccccc1NS(=O)(=O)c1ccc(F)cc1 | 20 | 12 | 2 | -20 | 4651 | 2.1 | 2
Cc1ccccc1OCCCC(=O)Nc1ccc2c(c1)OCO2 | 10 | -6 | 1 | -17 | 10688 | -0.7 | 6
Cc1ccc(S(=O)(=O)N2CCN(CCc3ccncc3)CC2)cc1 | 3 | 8 | 4 | -15 | 4288 | 3.0 | /
CCOC(=O)[C@@H]1[C@H]2COc3cc(OC)ccc3[C@@H]2N2C(=O)N(c3cccc(F)c3)C(=O)[C@]12C | / | / | / | -24 | 3624 | / | 4
Cc1cccc(C)c1OCC(O)CNC(C)c1ccccc1 (stereo unspecified) | 10 | -5 | -2 | -14 | 4481 | -0.4 | 9
CCC(C=NNC(=O)C(N)=O)CC | 2 | 3 | 4 | / | / | 4.4 | /
CC(C(=O)NCc1cccs1)N1CCN(S(=O)(=O)c2ccc3c(c2)OCCCO3)CC1 (stereo unspecified) | 0 | -3 | 5 | -10 | 6388 | 0.2 | /
COc1cccc(N2C(=O)C(O)=C(C(C)=O)C2c2ccc(OC)c(OC)c2)c1 (stereo unspecified) | 4 | -3 | 1 | -17 | 9035 | 1.9 | /
O=c1oc(-c2ccccc2NS(=O)(=O)c2ccccc2)nc2ccccc12 | 2 | 2 | -4 | -82 | 2443 | 7.8 | -2
Cc1cc2c(cc1C)N(C(=O)CCl)CCN2C(=O)CCl | / | / | 22 | -6 | 4091 | 16 | /

Compound activity deposited in PubChem BioAssay by several laboratories.
